# Mtb hypoxia inh: inhibitors of hypoxia-regulated fluorescent reporter in Mycobacterium tuberculosis | M. tuberculosis hypoxia-regulated fluorescent reporter, fluorescence | fluorescence inhibition, % (test concentration not listed) | 300,000 tested, 0.1% active;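 active = 35 to 45% if threefold the growth effect, above 45% if 1.5-fold the growth effect; inactive = the rest, general growth blockers included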;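 note: wells of about 50 µL received 100 nL stock; 0% = vehicle wells and 100% = reference inhibitor wells; whole bacteria with a GFP reporter of the hypoxia response; strong numbers were not always called active; many hits fall short of the cut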
# Sa ugtP lethal: kills S. aureus RN4220 lacking UgtP; S. aureus RN4220 ugtP deletion, OD600 growth, 16 h; some inactives read as strong as hits; growth inhibition, % (concentration not given with the values); 330,000 tested, 0.54% active; AID 1259309;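 active = z-score under -3 and OD600 up to 0.15 on both plates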;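 note: plate controls were untreated wells for no effect and antibiotic for full effect; wells of about 80 µL received 100 nL stock; the first replicate is given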
# Bead autofluor: compound fluorescence in toxin protease inhibitor counterscreen; compound autofluorescence counterscreen, microsphere flow cytometry; active compounds read high; fluorescence intensity (test concentration not listed); 360,000 tested, 3.1% active;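 active = at least 3 SD above the mean of all compounds, about 16000 in these data; inconclusive = too few beads counted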;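 note: 100 nL of 1 mM stock went into each well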
# RN4220 kill: kills Staphylococcus aureus RN4220; inhibition, % (test concentration not listed); S. aureus RN4220 growth, OD600, 16 h; 330,000 tested, 0.33% active;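 active = z-score of -3 or lower and OD600 up to 0.18 on both plates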;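 note: plate controls were untreated cells for no effect and reference antibiotic for full effect; stock transfer was 100 nL into about 80 µL; one replicate is shown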
# PrP 5UTR inh: inhibition of PrP 5' UTR reporter expression; 340,000 tested, 0.35% active; inhibition, % (concentration not given with the values); AID 488862; cell-based PrP 5' UTR mRNA reporter, plate reader;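 active = every replicate at 50% or more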;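 note: 0 = median of the neutral control wells; tested in H4 reporter cells; numbers are from one replicate; inactives centre near -14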
# BJeLR viability: BJeLR cell viability loss; BJeLR (HRASV12) viability, CellTiter-Glo ATP luminescence, 48 h; reference of the scale not given here; inhibition, % (concentration not given with the values); 300,000 tested, 0.17% active; AID 1554;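 active = replicate mean above 50%; inconclusive = above 50% but judged a plate artefact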;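 note: 50 nL library stock added to about 25 µL; numbers are from one replicate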
# Mtb hypoxia inh growth: recorded beside Mtb hypoxia inh, whose call it bears; growth inhibition, %; measured here: M. tuberculosis growth (absorbance);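 0% = vehicle and 100% = reference antibiotic; read after six days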
# * marks the source's active call; other numbers are inactive results; ? = inconclusive; . = not tested or not shown.
SMILES,Mtb hypoxia inh,Mtb hypoxia inh growth,Sa ugtP lethal,Bead autofluor,RN4220 kill,PrP 5UTR inh,BJeLR viability
COc1ccccc1C(=O)N/N=C(\C)c1ccc(NC(=O)Cc2ccccc2)cc1,.,.,.,6021,.,-25,-5
COc1ccc(Br)cc1C(=O)NC(=S)Nc1ccc(Cl)c(C(=O)O)c1,8,1,-10,3600,11,5,7
O=C(Nc1ccc(N2CCOCC2)cc1)c1ccc2c(c1)OCO2,15,3,13,4619,7.3,-59,-1
COc1ccccc1-n1cc(C(=O)c2cc(Cl)ccc2O)cc(C#N)c1=O,2,7,8,3600,-1.5,-27,1
CNc1ccccc1C(C)(C)c1cc(-c2cccc(Br)c2)no1,4,8,-5,5094,4.0,-21,12
COc1ccccc1C(=O)NCC(=O)OCC(=O)N1CC(C)OC(C)C1 (configuration not stated),0,5,-6,5766,4.3,-3,.
CC(=O)c1ccccc1C(=O)NCc1cccnc1,0,19,4,2428,1.3,-11,0
COc1cccc(N2CCN(C(=S)NCCc3ccccc3)CC2)c1,.,.,12,3940,-7.3,-11,4
CCCC(=O)Nc1cccc(-c2nc3ccccc3c(=O)o2)c1,0,17,-2,2754,3.8,2,0
N#C/C(=C\c1ccc(OCc2ccc(Br)cc2)cc1)C(=O)Nc1cccc(C(=O)O)c1,9,10,1,5020,-3.7,-108,-15
Cc1ccc(S(=O)(=O)N2CCN(C(=O)CSc3nnc(C)c(=O)[nH]3)CC2)cc1,.,.,0,4083,7.6,4,1
NC(=O)CC(NC(=O)Cc1ccc(Br)cc1)c1ccc(NCCc2ccc(F)cc2)c([N+](=O)[O-])c1 (configuration not stated),-2,-1,0,3470,-5.8,-7,10

# Five records picked at random from those above, as already listed:
SMILES,Mtb hypoxia inh,Mtb hypoxia inh growth,Sa ugtP lethal,Bead autofluor,RN4220 kill,PrP 5UTR inh,BJeLR viability
COc1ccccc1C(=O)NCC(=O)OCC(=O)N1CC(C)OC(C)C1 (configuration not stated),0,5,-6,5766,4.3,-3,.
CCCC(=O)Nc1cccc(-c2nc3ccccc3c(=O)o2)c1,0,17,-2,2754,3.8,2,0
N#C/C(=C\c1ccc(OCc2ccc(Br)cc2)cc1)C(=O)Nc1cccc(C(=O)O)c1,9,10,1,5020,-3.7,-108,-15
O=C(Nc1ccc(N2CCOCC2)cc1)c1ccc2c(c1)OCO2,15,3,13,4619,7.3,-59,-1
CC(=O)c1ccccc1C(=O)NCc1cccnc1,0,19,4,2428,1.3,-11,0

# Further records:
SMILES,Mtb hypoxia inh,Mtb hypoxia inh growth,Sa ugtP lethal,Bead autofluor,RN4220 kill,PrP 5UTR inh,BJeLR viability
O=C(NCCC1=CCCCC1)C1CC(=O)N(C2CCCCCC2)C1 (configuration not stated),1,2,5,11755,5.8,-7,3
CC(=O)c1cc2c(cc1NC(=O)CN1CCOCC1)OCO2,7,8,2,10315,2.4,9,-2
CC(=O)NC1=NN(C(C)=O)C2(CCCC2)S1,6,7,12,5057,2.9,-24,4
Cc1c(CC(=O)O)c(=O)oc2cc(OCc3ccc(Br)cc3)ccc12,11,-5,8,3204,8.7,2,-2
Cc1cccc(NC(=O)c2cc([N+](=O)[O-])ccc2NCC2CCCO2)n1 (configuration not stated),9,10,3,4357,11,-44,-5
CC(=O)Nc1ccc(NC(=O)C(NS(=O)(=O)c2cccc3nsnc23)C(C)C)cc1 (configuration not stated),2,5,2,5867,0.4,-17,-4
CCOC(=O)c1c(NC(=O)CN2C(=O)NC3(CCCCC3C)C2=O)sc(C)c1CC (configuration not stated),8,3,3,?,2.1,-32,-1
COC(=O)[C@@]12CCCN1C(c1ccc(-c3ccccc3)c(OC)c1)C1C(=O)N(C)C(=O)C12 (some centres not stated),2,6,-2,.,-1.8,.,.
COc1ccc(CNC(=O)COC(=O)c2ccc(S(=O)(=O)N3CCCCC3)cc2)cc1,7,5,2,3008,1.4,-24,.
CCOC(=O)C1=C(C)N(CCCCCC(=O)O)C(=O)NC1c1ccc(Cl)cc1 (configuration not stated),2,0,-1,4051,4.3,0,-16
COc1ccc(CN(C)Cc2nc3scc(-c4ccccc4)c3c(=O)[nH]2)cc1OC,-4,4,-2,2388,0.3,-42,-6
CCC1CCCCN1CCNC(=O)CNS(=O)(=O)c1ccc2nc(C)sc2c1 (configuration not stated),-6,6,-4,3300,-0.6,4,2
Cc1ccc(-n2ncc3c(=O)n(CC(=O)NC4CCCCC4)cnc32)cc1,6,14,3,2858,3.4,-20,7
COCCCNCC(O)C(F)(F)F (configuration not stated),5,9,9,4405,1.8,-16,5
O=C(NCc1csc2ccccc12)Nc1cc(Cl)cc(Cl)c1,5,6,-17,4592,-11,0,0
CN(C)CCCNC(=O)c1cc(Br)ccc1O,9,12,7,4655,3.6,-17,-14
O=C(COC(=O)Cc1ccccc1)NCCNC(=O)COC(=O)Cc1ccccc1,9,1,6,6385,1.9,-23,-8
CC(C=NNC(=O)c1cccnc1)c1ccccc1 (configuration not stated),7,3,1,.,3.6,.,.
COc1ccc(C)cc1S(=O)(=O)Nc1cc(Cl)ccc1Cl,.,.,-6,4515,21,-7,5
COc1cc(/C=N/O)ccc1Oc1cnccn1,.,.,.,3579,.,-10,-4
CCOC(=O)c1ccc(-c2ccc3oc(-c4ccsc4)cc(=O)c3c2)cc1F,8,9,-10,3446,6.8,-40,.
Cc1ccc(-c2nc3cc(Cl)ccc3o2)cc1,10,3,24,.,5.7,-82,4
CCC(C)N(C(=O)COc1ccc(-c2nnco2)cc1)C1CCS(=O)(=O)C1 (configuration not stated),6,5,0,5066,1.5,4,7
Cc1cc(NC(=O)c2sccc2C)n(-c2cccc(Cl)c2)n1,9,14,2,2950,0.8,-9,4

# Some entries already given, showing only Bead autofluor, RN4220 kill and PrP 5UTR inh.
canonical_smiles,Bead autofluor,RN4220 kill,PrP 5UTR inh
Cc1ccc(-n2ncc3c(=O)n(CC(=O)NC4CCCCC4)cnc32)cc1,2858,3.4,-20
O=C(NCc1csc2ccccc12)Nc1cc(Cl)cc(Cl)c1,4592,-11,0

# Structures shown so far that contain two or more sulfur atoms:
SMILES,Mtb hypoxia inh,Mtb hypoxia inh growth,Sa ugtP lethal,Bead autofluor,RN4220 kill,PrP 5UTR inh,BJeLR viability
Cc1ccc(S(=O)(=O)N2CCN(C(=O)CSc3nnc(C)c(=O)[nH]3)CC2)cc1,.,.,0,4083,7.6,4,1
CC(=O)Nc1ccc(NC(=O)C(NS(=O)(=O)c2cccc3nsnc23)C(C)C)cc1 (configuration not stated),2,5,2,5867,0.4,-17,-4
CCC1CCCCN1CCNC(=O)CNS(=O)(=O)c1ccc2nc(C)sc2c1 (configuration not stated),-6,6,-4,3300,-0.6,4,2

# New compounds follow.
SMILES,Mtb hypoxia inh,Mtb hypoxia inh growth,Sa ugtP lethal,Bead autofluor,RN4220 kill,PrP 5UTR inh,BJeLR viability
CC(=O)Nc1cccc(NC(=S)Nc2cccc(Cl)c2C)c1,-2,12,1,3411,2.0,-21,-3
O=C(NCc1ccccn1)/C(=N/O)c1ccccc1,.,.,.,4526,.,-23,-2
c1ccc(-n2nnnc2Oc2ccc(-n3ccnc3)cc2)cc1,-2,-10,4,4379,-1.4,-26,-11
CCN(CC)CCN1C(=O)C(=O)/C(=C(/O)c2c(C)[nH]c(C(=O)OC)c2C)C1c1ccccc1 (configuration not stated),1,-7,-1,.,0.2,7,0
COc1ccc(CNC(=O)[C@H](Cc2c[nH]c3ccccc23)NC(=O)[C@@H]2Cc3ccccc3CN2)cc1,.,.,-7,5761,2.2,-6,-10
Cc1ccc(S(=O)(=O)N2CCN(C3CC4CCC3C4)CC2)cc1 (configuration not stated),2,-1,8,3153,1.1,-26,-2
CCOC(=O)N1CCN(Cc2ccc3ccccc3c2)CC1,10,6,6,4040,2.2,-36,-2
COc1ccc(-c2oc3ccc(-c4cc(OC)c(OC)c(OC)c4)cc3c2-c2ccc(OC)nc2)cc1,-6,-2,-2,3908,0.1,-11,-3
Cc1ccc(C)c(N2C(=N)S/C(=C\c3ccc(-c4ccccc4C(=O)O)o3)C2=O)c1,1,0,-6,2335,3.6,-25,-7
COc1ccc(NS(=O)(=O)c2cccc(C(=O)NCC3(N4CCCCC4)CCCCC3)c2)cc1,12,1,10,8535,5.2,-8,6
FC(F)(F)c1cnc(C(c2ccccc2)c2ncn[nH]2)c(Cl)c1 (configuration not stated),10,5,13,2751,6.1,-11,7
COC(=O)/C(C#N)=C/c1ccc(C)o1,9,2,2,3827,-1.8,-6,-8

# Complete entries as entered above.
# CCOC(=O)N1CCN(Cc2ccc3ccccc3c2)CC1 is listed as Mtb hypoxia inh = 10; Mtb hypoxia inh growth = 6; Sa ugtP lethal = 6; Bead autofluor = 4040; RN4220 kill = 2.2; PrP 5UTR inh = -36; BJeLR viability = -2
# FC(F)(F)c1cnc(C(c2ccccc2)c2ncn[nH]2)c(Cl)c1 (configuration not stated) is listed as Mtb hypoxia inh = 10; Mtb hypoxia inh growth = 5; Sa ugtP lethal = 13; Bead autofluor = 2751; RN4220 kill = 6.1; PrP 5UTR inh = -11; BJeLR viability = 7

# Next records follow.
SMILES,Mtb hypoxia inh,Mtb hypoxia inh growth,Sa ugtP lethal,Bead autofluor,RN4220 kill,PrP 5UTR inh,BJeLR viability
O=C(NCc1ccccc1)c1ccc2nccnc2c1,12,7,0,4157,2.2,-21,5
COc1cccc(NC(=S)N2CCN(c3ccccn3)CC2)c1,-5,-3,3,7997,-1.3,-4,6
CCCOc1ccc(-c2c(C(=O)NN=Cc3ccsc3)nnn2-c2nonc2N)cc1,7,-1,-1,.,4.9,.,.
CN(C)CC/C=C1/c2ccccc2CS(=O)(=O)c2ccccc21,8,1,14,5371,2.6,-41,3
Cc1cc(C=O)c(C)n1-c1ccc(Oc2ccc([N+](=O)[O-])cn2)cc1,3,2,1,2497,7.6,-3,6
Cn1cccc1CC(=O)N/N=C/C(Cl)=C/c1ccccc1,.,.,.,2705,.,-9,5
S=C(NCc1ccccn1)Nc1ccccc1,15,-8,7,2294,1.4,-8,0
CC1(C)CC(=O)C2=C(C1)OC(N)=C(C#N)C2c1ccc(OC(=O)N2CCOCC2)cc1 (configuration not stated),1,15,-8,9674,5.6,-27,0
O=C(Nc1nc2ccc(S(=O)(=O)N3CCCC3)cc2s1)c1ccco1,-6,5,-8,2394,-0.8,-28,-7
CCOc1ccc(CCNC(=O)C2CCCN(c3ncnc4c3nc3n4CCCCC3)C2)cc1 (configuration not stated),-2,0,3,5061,3.2,-15,12

# Bioassay records (PubChem)

# This is a random part of the collection (roughly 4% active in at least one column).
